# High-throughput results as filed in PubChem BioAssay.
# StopGo reporter – lowers the luciferase signal of an FMDV 2A StopGo reporter; human cells with a luciferase reporter of 2A StopGo recoding; control for the full effect not named in the record; hit rate 1.2% among 410,000; AID 1159524; Potency, µM (series often up to 57.9 µM), for inactives: at the top dose signal change, negative = less light; active = well fitted falling curve with a large enough effect; inconclusive = small, poorly fitted or top-dose-only effect; inactive = no such curve, though single readings can be large or run the other way; tested in HEK293T cells; also: % is scaled to controls: 0 for no effect and ±100 for the full control effect; nearly all actives have a fitted effect of over 45% in size; luciferase light after 4 h
# SARS PLP yeast – inhibitors of SARS-CoV papain-like protease in yeast | hit rate 0.19% among 330,000 | S. cerevisiae expressing SARS-CoV PLpro, growth rescue; control for the full effect not named in the record | Potency, µM (top dose mostly 32.9 µM), for the others: top-dose activity, positive = growth rescue | AID 485353; active means well fitted rising curve with a large enough effect; inconclusive means small, poorly fitted or top-dose-only effect; inactive means no such curve, though single readings can be large or run the other way; also: 0% is about no effect; nearly all actives have a fitted effect of over 55% in size; growth read by luminescence after 48 h
# Marburg entry inh – inhibitors of Marburg virus binding or cell entry; Marburg virus pseudotyped entry inhibition, cell reporter; control for the full effect not named in the record; about a third of the inactives were read at about 46 µM; Potency, µM (highest dose often 37.8 µM), without a hit: top-dose activity change, negative = inhibition, most hits filed as inhibitors; hit rate 1.8% among 300,000; active = well fitted inhibition curve with a large enough effect; inconclusive = small, poorly fitted or top-dose-only effect, or effect the other way; inactive = flat fitted curve, though single readings scatter; tested in HEK293 cells; about a fifth of its hits are not listed in these tables; also: % is scaled to controls: 0 for no effect and ±100 for the full control effect; luciferase read-out
# LASV entry inh – inhibitors of Lassa virus binding or cell entry | Lassa virus pseudotype entry inhibition, cell reporter; control for the full effect not named in the record | Potency, µM (series often up to 37.9 µM), inactives show at the top dose activity change, negative = inhibition, hits mostly inhibitors | AID 540256 | hit rate 1.2% among 300,000; active means well fitted inhibition curve with a large enough effect; inconclusive means small, poorly fitted or top-dose-only effect, or effect the other way; inactive means flat fitted curve, though single readings scatter; tested in HEK293 cells; also: % is scaled to controls: 0 for no effect and ±100 for the full control effect; nearly all actives have a fitted effect of over 50% in size; luciferase read-out
# Cruzain inh Det – cruzain (T. cruzi) inhibition with detergent; P25779; purified cruzain, Z-FR-AMC fluorescence, 0.01% Triton; Potency, µM, for the others: max response, negative = inhibition, hits mostly inhibitors; hit rate 0.43% among 200,000; AID 1478;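 also: plate controls were neutral wells for no effect and buffer without enzyme for full effect; nearly all actives have a fitted effect of over 40% in size; top concentration of the series not given in the record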
# Target sequence (P25779 123-467 limits assumed): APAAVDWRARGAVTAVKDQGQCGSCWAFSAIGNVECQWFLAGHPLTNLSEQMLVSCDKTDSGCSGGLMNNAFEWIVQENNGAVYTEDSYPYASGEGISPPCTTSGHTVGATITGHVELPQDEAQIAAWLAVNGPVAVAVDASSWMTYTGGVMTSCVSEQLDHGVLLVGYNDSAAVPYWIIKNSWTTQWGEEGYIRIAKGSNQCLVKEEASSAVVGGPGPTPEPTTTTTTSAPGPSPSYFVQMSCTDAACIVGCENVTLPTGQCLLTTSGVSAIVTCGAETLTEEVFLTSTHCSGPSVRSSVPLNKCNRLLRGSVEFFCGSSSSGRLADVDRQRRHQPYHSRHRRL
#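 Purified cruzain (1.5 nM final) was preincubated with compounds for 15 min at room temperature in 100 mM sodium acetate pH 5.5, 5 mM DTT, 0.01% Triton X-100. Reaction started with 2 uM Z-FR-AMC; AMC fluorescence change over 60 s gave activity.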
# RE007 growth inh – less growth of the S. pombe RE007 Vpr strain; hit rate 0.21% among 360,000; AID 651644; Potency, µM (highest dose often 92.2 µM), for inactives: at the top dose activity change, negative = less growth; S. pombe RE007 Vpr strain, BacTiter-Glo ATP luminescence, 24 h; control for the full effect not named in the record; active = well fitted falling curve with a large enough effect; inconclusive = small, poorly fitted or top-dose-only effect; inactive = no such curve, though single readings can be large or run the other way;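 also: % is scaled to controls: 0 for no effect and ±100 for the full control effect; nearly all actives have a fitted effect of over 50% in size; the assay follows cell death caused by Vpr and the record does not say whether a fall means rescue or toxicity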
#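 Fission yeast strain RE007, carrying one chromosomally integrated HIV-1 vpr copy, was seeded at OD 0.01 in PMG+AL medium with 23 nL pinned compound. After 24 h at 30 °C and 99% humidity, viability was read by BacTiter-Glo luminescence.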
# Cruzain inh noDet – blocks cruzain activity in detergent-free assay; P25779; purified cruzain, Z-FR-AMC fluorescence, no detergent; Potency, µM, without a hit: max response, negative = inhibition, actives largely listed as inhibitors; hit rate 2.3% among 200,000; AID 1476;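 also: plate controls were enzyme without inhibitor for no effect and buffer without enzyme for full effect; nearly all actives have a fitted effect of over 40% in size; top concentration of the series not given in the record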
#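 Detergent-free condition (0.00005% Triton X-100) in acetate buffer pH 5.5 with DTT. 1.5 nM enzyme and compound were pre-mixed 15 min, then 2 uM Z-FR-AMC substrate added; reaction progress from fluorescence change between first and third reads (60 s).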
# NS1 inh – influenza NS1 inhibition; hit rate 0.4% among 270,000; S. cerevisiae slowed by influenza A NS1, growth recovery by OD600; Potency, µM (series often up to 46.1 µM), for inactives: top-dose activity, positive = more growth; AID 2326; active means well fitted rising curve with a large enough effect; inconclusive means small, poorly fitted or top-dose-only effect; inactive means no such curve, though single readings can be large or run the other way; also: nearly all actives have a fitted effect of over 50% in size
#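 Recovery from NS1-induced slow growth read by OD600 in budding yeast switched to galactose assay medium (pH 6.0, -URA) at 1:100 dilution. Compound 23 nl per well; the matching strain lacking NS1 serves as control.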
# Starred values were filed as active, the others as inactive; ? = inconclusive; · = no result given; & = joins results of further samples; [ ] = dose if it differs, or a comment. Unless noted, calls follow the shape of the dose curve; as a rule, active = well fitted curve in the direction sought with a large enough effect; inconclusive = small, poorly fitted or top-dose-only effect, or another doubt; inactive = no such curve, though single readings can be large; an effect the other way counts as inactive or inconclusive. Potency is read from the fitted curve at half-maximal effect.
# Results follow in this order: StopGo reporter	SARS PLP yeast	Marburg entry inh	LASV entry inh	Cruzain inh Det	RE007 growth inh	Cruzain inh noDet	NS1 inh
Nc1ccccc1SCc1csc(-c2ccc(Cl)cc2)n1
→ 21%	-8%	·	·	2.5%	·	0%	-18%&-4%
O=C1c2ccccc2C(=O)N1c1ncn[nH]1
→ -24%	-1%	·	·	·	-9%	·	-7%
CC(C)c1nccn1CCC(=O)O
→ 18%	-7%	15%	2%	-6.6%	15%	4%	4%
Cc1ccc(CN(C(=O)c2ccccc2F)c2ccccn2)o1
→ -2%	·	-15%[46.1 µM]	1%[46.1 µM]	-7.8%	·	5%	·
COc1ccc(OC)c(NC(=O)C2CC(=O)N(c3ccccc3)C2)c1 (stereo unspecified)
→ 12%	-1%	1%	4%	1.5%	-8%	12%	4%
O=C(NCc1ccccc1)C(c1ccccc1)N(C(=O)c1csnn1)C1CCCC1 (stereo unspecified)
→ 12%	2%	-4%[46.1 µM]	-6%	·	-13%	·	4%
Cc1cc(Nc2cccc(Cl)n2)n(-c2ccccc2)n1
→ -10%	?	3%	3%	-6.5%	8%	-5%	4%
CSc1ccc(S(=O)(=O)NCC(=O)OCC(=O)N(C)Cc2ccccc2)cc1[N+](=O)[O-]
→ 4%	-4%	-12%	?	·	-6%	·	·
CCn1c(=O)c2cc(C(=O)N(C)CC(OC)OC)sc2c2ccccc21
→ -11%	-2%	·	·	·	-7%	·	-9%
CCCC(=O)Nc1ccccc1NC(=O)c1cc(OC)c(OC)c(OC)c1
→ 15%	2%	2%	9%	1.4%	35%	-1%	-5%
CC1(C)CC(NC(=O)c2ccccc2Cl)CC(C)(C)N1
→ 6%	-4%	5%	-5%	3.9%	2%	-1%	-1%
CCOC(=O)c1nn(-c2ccccc2F)c(C)c1C(C)=O
→ -23%	-5%	15%	-2%	-2.9%	0%	8%	6%
COc1cc2c3c(c1)C1(C(=O)N3C(C)(C)C=C2C)C(C#N)=C(N)Oc2cc(C)oc(=O)c21 (stereo unspecified)
→ ?	0%	-4%&-4%	-20%	-1.2%	15%	?	3%
CCOc1ccccc1CNC(=O)CCCn1nc(C)c2sc3ccccc3c2c1=O
→ -20%	·	1%[46.1 µM]	-17%[46.1 µM]	-7.6%	·	-17%	·
Cc1cccc(Oc2ccc3c(c2)Oc2ccccc2NC3=O)c1
→ 2%	·	-27%[46.1 µM]	1%[46.1 µM]	-5.0%	·	?	·
O=C(c1ccco1)N1CCN(C(=O)C(Cc2ccccc2)NS(=O)(=O)c2cccs2)CC1 (stereo unspecified)
→ 17%	3%	7%	?	-2.7%	-4%	-10%	2%
CC(C)Cc1cc(C(=O)Nc2sc3c(c2C#N)CCC3)no1
→ -1%	-8%	·	·	-6.4%	-8%	-1%	-13%
COc1cc([N+](=O)[O-])ccc1NC(=O)NCc1ccco1
→ -1%	2%	26%[46.1 µM]	?	·	6%	·	5%
O=C(Cc1ccccc1F)NC1CCSc2ccccc21 (stereo unspecified)
→ -14%	-4%	-9%[46.1 µM]	10%[46.1 µM]	·	4%	·	-2%
COC(=O)c1cccc(NC(=O)NC2CCCN2S(=O)(=O)c2ccc(Cl)cc2)c1 (stereo unspecified)
→ 6%	2%	-1%	4%	-1.2%	1%	-25%	-16%

# Next results
# Results follow in this order: StopGo reporter	SARS PLP yeast	Marburg entry inh	LASV entry inh	Cruzain inh Det	RE007 growth inh	Cruzain inh noDet	NS1 inh
COc1ccc(/C=N\NC(=O)CCc2c(C)n[nH]c2C)c(OC)c1OC
→ 8%	-5%	20%[46.1 µM]	-20%	-5.1%	12%	-8%	1%
O=C(Nc1ccccc1Cl)C(=O)c1cn(CC(=O)N2CCOCC2)c2ccccc12
→ 0%	-1%	·	·	·	2%	·	5%
Cc1nc(-c2ccc(S(=O)(=O)N3CCN(C(c4ccccc4)c4ccccc4)CC3)s2)cs1
→ -12%	2%	-6%	-13%	·	2%	·	?
CC(C)(C)N(NS(=O)(=O)c1ccc(F)cc1)c1ccccc1
→ 11%	-2%	?	?	·	11%	·	-6%
Cc1ccc(/C=N/NC(=O)c2cccc(S(=O)(=O)N3CCOCC3)c2)o1
→ -6%	0%	?	11%[46.1 µM]	·	5%	·	·
CCCCc1ccc(NC(=O)COc2cccc3c(=O)n(C)ccc23)cc1
→ ?	·	·	·	-2.0%	·	20µM*	·
CN(Cc1nc(CCc2ccccc2)no1)Cc1cccs1
→ 12%	1%	12%[46.1 µM]	4%[46.1 µM]	·	-6%	·	-4%
FC(F)(F)c1cc(-c2ccco2)nc(NCCc2ccccc2)n1
→ 17%	-9%	?	19%	-12%	-2%	-6%	-10%
O=C(NCc1ccccc1)C1CCCN(S(=O)(=O)c2ccc(-n3cnnn3)cc2)C1 (stereo unspecified)
→ 5%	-1%	10%	1%	·	2%	·	5%
O=C(Oc1ccc2ccc(OC(=O)N3CCCCCC3)cc2c1)N1CCCCCC1
→ 25%	-3%	?	23%	-7.6%	-18%	-7%	-14%
CCOCCCNC(=O)c1c(N)n(-c2ccc(S(N)(=O)=O)cc2)c2nc3ccccc3nc12
→ -12%	7%	-9%	9%	5.8%	-6%	-2%	4%
O=C(NCC1CC1)NC(=O)c1c(F)cccc1Cl
→ 14%	0%	·	·	·	4%	·	1%
Cc1ccc2nc(N/C(N)=N/S(=O)(=O)c3ccc([N+](=O)[O-])cc3)nc(C)c2c1
→ 16%	6%	?	3%	-3.8%	0%	?	-3%
CCCOc1ccc(-c2c(C(=O)N/N=C(\C)c3ccco3)nnn2-c2nonc2N)cc1
→ -7%	5%	·	·	·	3%	·	?
COCCCN(C(=O)C(C)Oc1ccc(Br)cc1)c1c(N)n(Cc2ccccc2)c(=O)[nH]c1=O (stereo unspecified)
→ -12%	-4%	-7%	-1%	·	-7%	·	·
O=C(CSc1c[nH]c2ccccc12)N1CCOCC1
→ 0%	-4%	20%	?	7.6%	3%	-7%	3%
Nc1nc(COc2ccc(Cl)cc2)cs1
→ 32%[activator]	-11%	-9%[46.1 µM]	-3%	·	-16%	·	2%
Cc1cccc(-n2ncc3c2CCCC3NC(=O)CCN2CCCCO2)c1C (stereo unspecified)
→ -2%	4%	?	?	·	-5%	·	1%
Cc1nn(CC(=O)Nc2ccc(C(=O)N3CCCCC3)cc2)c(=O)c2ccccc12
→ 1%	5%	2%	-6%	-1.4%	16%	-6%	-1%
CCN1CCN(C(=O)c2c(-c3c(Cl)cccc3Cl)noc2C)CC1
→ 1%	1%	?	?	·	-12%	·	18%

# Some values from the list:
# FC(F)(F)c1cc(-c2ccco2)nc(NCCc2ccccc2)n1 | LASV entry inh: 19%
# CCCCc1ccc(NC(=O)COc2cccc3c(=O)n(C)ccc23)cc1 | Cruzain inh Det: -2.0%
# CCCOc1ccc(-c2c(C(=O)N/N=C(\C)c3ccco3)nnn2-c2nonc2N)cc1 | SARS PLP yeast: 5%

# The list continues:
# Results follow in this order: StopGo reporter	SARS PLP yeast	Marburg entry inh	LASV entry inh	Cruzain inh Det	RE007 growth inh	Cruzain inh noDet	NS1 inh
COc1ccc(-n2nnc3c(SCC(=O)Nc4ccc5c(c4)OCCO5)ncnc32)cc1
→ ·	-8%	-1%	·	4.5%	·	?	1%
COc1ccc(-c2cc(-c3cccs3)nc(OC)c2C#N)cc1OC
→ -28%	13%	?	?	-15%	1%	5%	17%
Clc1ccc(-c2c[n+](Cc3ccc(Cl)c(Cl)c3)c3n2CCC3)cc1
→ ·	-2%	·	·	-11%	·	-5%	2%
CCCOc1ccc(N2C(=O)CC(NCc3cccnc3)C2=O)cc1 (stereo unspecified)
→ 6%	-5%	-12%[46.1 µM]	0%[46.1 µM]	·	-16%	·	5%
COc1ccc(C(=O)NC2CCN(CC(=O)NC3CCCCC3)CC2)cc1
→ 3%	0%	-7%[46.1 µM]	1%	·	-11%	·	7%
COc1ccccc1NC(=O)CSc1nnc(COc2ccc(Cl)cc2)n1Cc1ccco1
→ -17%	-8%	-16%&-16%	-9%	?	18%	-15%	-51%
CCCOC(=O)c1c(NC(=O)C2C3C=CC(C3)C2C(=O)O)sc2c1CCC(C)C2 (stereo unspecified)
→ -23%	1%	-23%	-5%	·	-2%	·	1%
Cc1ccc(NC(=O)CSc2nc3ccc(NC(=O)c4cccs4)cc3s2)cc1
→ -4%	·	?	-12%[46.1 µM]	-5.5%	·	?	·
CC1(OC(=O)CCc2ccccc2)C(=O)C=C2C=C(c3ccc(C#N)cc3)N(CC3CC3)C=C2C1=O (stereo unspecified)
→ -10%	0%	12%&12%[14.2 µM]	·	·	-8%	·	4%
C=C(C)C(=O)Nc1cccc(C2=NOC3(C2)C[C@H](C(N)=O)N(C(=O)CC#N)C3)c1 (stereo partly specified)
→ -14%	3%	·	·	·	2%	·	?
CCS(=O)(=O)C1=NN2C(=N)/C(=C\c3ccc(OS(=O)(=O)c4ccccc4)cc3)C(=O)N=C2S1
→ -11%	23%	·	·	·	0%	·	-3%
COc1cc(C)ccc1OCCSc1nc2ccc(NC(=O)c3ccc(F)cc3)cc2s1
→ ?	·	-15%[46.1 µM]	9%[46.1 µM]	-0.8%	·	2%	·
C/C(=N\NC(=S)NCCc1ccccc1)c1cccs1
→ -8%	·	3%	-26%	-7.1%	-28%	-4%	-22%
CN(C)c1ccc2cc(S(=O)(=O)O)cc(O)c2c1
→ -10%	·	11%[46.1 µM]	-5%[46.1 µM]	·	7%	·	·
COc1ccc(C(=O)Cc2ccc(F)cc2)c(OC)c1
→ 17%	17%	?	13%	-2.3%	·	-2%	-8%
Cc1cccc(NC(=S)N(CCN2CCOCC2)Cc2cc3cc4c(cc3[nH]c2=O)OCO4)c1
→ -12%	1%	-16%[46.1 µM]	·	·	-21%	·	-1%
COc1cc2ccccc2cc1C(=O)Nc1ccccc1N1CCN(S(C)(=O)=O)CC1
→ 5%	·	-29%	-14%	-5.8%	-16%	25µM*	?
